Source: PubChem BioAssay
Autofluor counter: compound fluorescence in toxin protease inhibitor counterscreen; AID 624483; fluorescence intensity (test concentration not listed); actives 3.1% (n = 360,000); compound autofluorescence counterscreen, microsphere flow cytometry; active compounds read high;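 active means at least 3 SD above the mean of all compounds, about 16000 in these data; inconclusive means too few beads counted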;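 further: 100 nL of 1 mM stock went into each well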
Sa ugtP lethal: compounds lethal to S. aureus RN4220 ugtP deletion mutant; growth inhibition, % (no concentration beside the values); OD600 growth, 16 h; some inactives read as strong as hits; actives 0.54% (n = 330,000);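 active means z-score under -3 and OD600 up to 0.15 on both plates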;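 further: plate controls were untreated wells for no effect and antibiotic for full effect; wells of about 80 µL received 100 nL stock; the first replicate is given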
PrP UTR inh: inhibition of PrP 5' UTR reporter expression; cell-based PrP 5' UTR mRNA reporter, plate reader; actives 0.35% (n = 340,000); inhibition, % (no concentration beside the values); AID 488862;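 active means every replicate at 50% or more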;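 further: 0 = median of the neutral control wells; tested in H4 reporter cells; numbers are from one replicate; inactives centre near -14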
RN4220 kill: S. aureus RN4220 growth inhibition; OD600, 16 h; inhibition, % (no concentration beside the values); actives 0.33% (n = 330,000);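 active means z-score of -3 or lower and OD600 up to 0.18 on both plates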;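 further: plate controls were untreated cells for no effect and reference antibiotic for full effect; stock transfer was 100 nL into about 80 µL; one replicate is shown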
Mtb hypoxia rep: reduces hypoxia-regulated biosensor signal in M. tuberculosis; M. tuberculosis hypoxia-regulated fluorescent reporter, fluorescence; fluorescence inhibition, % (concentration not given with the values); actives 0.1% (n = 300,000); AID 1159583;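 active means 35 to 45% if threefold the growth effect, above 45% if 1.5-fold the growth effect; inactive means the rest, general growth blockers included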;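 further: wells of about 50 µL received 100 nL stock; 0% = vehicle wells and 100% = reference inhibitor wells; whole bacteria with a GFP reporter of the hypoxia response; strong numbers were not always called active; many hits fall short of the cut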
BJeLR viability: BJeLR cell viability loss. BJeLR (HRASV12) viability, CellTiter-Glo ATP luminescence, 48 h; reference of the scale not given here. inhibition, % (test concentration not listed). actives 0.17% (n = 300,000). AID 1554;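 active means replicate mean above 50%; inconclusive means above 50% but judged a plate artefact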;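 further: 50 nL library stock added to about 25 µL; numbers are from one replicate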
Mtb hypoxia rep growth: second read-out of Mtb hypoxia rep, no call of its own (marks repeat the call); growth inhibition, %; measured here: M. tuberculosis growth (absorbance);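 0% = vehicle and 100% = reference antibiotic; read after six days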
Starred values were filed as active, the others as inactive; u = inconclusive; x = not tested or not shown. Rows are unselected; about 4% have a hit in one of these screens.

SMILES	Autofluor counter	Sa ugtP lethal	PrP UTR inh	RN4220 kill	Mtb hypoxia rep	Mtb hypoxia rep growth	BJeLR viability
Cc1ccccc1C(=O)N1CCC(C(=O)Nc2ccc(C)c(S(=O)(=O)N3CCCCC3)c2)CC1	6010	9	-16	4.9	7	6	x
CN(C)C(=O)COC(=O)c1cccnc1Nc1ccccc1F	2530	3	-9	5.6	10	-1	11
C=CCn1c(CCNC(=O)c2ccc(Cl)c(Cl)c2)nnc1SCCOc1ccc(OC)cc1	21454*	-19	-31	0.8	4	5	-2
CC(C)(C)NC(=O)C[C@H]1C[C@H](C(=O)N2CCCCC2)[C@@]2(C)c3[nH]c4ccc(Cl)cc4c3CCN2C1=O	3135	-3	-12	4.8	0	-1	x
Cn1c(CC(=O)Nc2ccccc2)n[nH]c1=S	4121	6	-15	9.9	-1	-4	-5
O=C1CN(C(=O)C2CCCC2)CCN1	2503	3	-30	3.1	4	3	-10
COc1ccc(C(=O)Nc2ccccc2C(=O)N2CCOCC2)cc1OC	3756	-6	-15	3.0	-9	-1	-2
Cc1ccc2nc3c(cc(C(=O)NCC4CCCO4)n3C)c(=O)n2c1 (stereo unspecified)	x	3	x	4.1	6	11	x
Cc1nc2c(C)cccc2cc1C(=O)NN=Cc1cccnc1	x	-5	x	3.9	0	-6	x
COc1cc(OC)cc(N2C(=O)CC(N3CCC(C(=O)N4CCCCC4)CC3)C2=O)c1 (stereo unspecified)	u	-4	-3	-1.4	-17	-5	0
COc1ccc(-c2nc(=S)c3c([nH]2)Oc2ccc(C)cc2C3)cc1O	2101	-7	-5	3.7	11	4	1
CCOC(=O)C1C2COc3ccc(OC)cc3C2N2C(=O)CN(Cc3ccc(C)cc3)C(=O)[C@@]12C (stereo partly specified)	x	2	x	-2.0	13	0	x
O=c1c2ccccc2c(C=NCc2ccccn2)c(O)n1-c1ccccc1	2639	5	-1	4.4	-9	0	-10
CCN(CC)S(=O)(=O)c1ccc(Cl)c(NC(=O)c2ccncc2)c1	4389	1	-50	9.9	15	6	-2
COc1ccc(-c2cc(CNC(=O)CN3CCN(C)CC3)on2)cc1	2247	-3	5	1.2	x	x	3
Cc1ccc(S(=O)(=O)N2CCN(c3ccc(C(=O)N4CCOCC4)cc3[N+](=O)[O-])CC2)cc1	9247	4	-6	6.1	2	-3	14
Cn1nc(Cc2cccc3ccccc23)c(C#N)c1N	3310	7	-16	6.4	6	4	0
COc1ccc(Cl)cc1NC(=O)CSc1sc2c(O)cc(=O)[nH]c2c1C#N	3820	3	-20	4.7	-10	0	-5
COc1ccccc1C=NNC(=O)CNC(=O)c1ccc(S(=O)(=O)N(C)C)cc1	x	6	x	3.9	5	9	x
Cc1ccccc1OCCn1cc(C=O)c2ccccc21	4245	3	-8	5.0	18	7	-6

Individual results from above:
CN(C)C(=O)COC(=O)c1cccnc1Nc1ccccc1F in BJeLR viability = 11
O=C1CN(C(=O)C2CCCC2)CCN1 in Sa ugtP lethal = 3
COc1ccc(C(=O)Nc2ccccc2C(=O)N2CCOCC2)cc1OC in Mtb hypoxia rep = -9

The list continues.
SMILES	Autofluor counter	Sa ugtP lethal	PrP UTR inh	RN4220 kill	Mtb hypoxia rep	Mtb hypoxia rep growth	BJeLR viability
COc1ccc(N2C(=O)CC2(C#N)c2ccc(OCc3ccccc3)cc2)cc1 (stereo unspecified)	9145	31	-4	-0.9	5	5	-8
Cc1cc2ccccc2c(=O)n1CC(=O)NCC1COc2ccccc2O1 (stereo unspecified)	3207	8	-1	7.9	x	x	-1
Cc1cccc(N=N/C(=C\O)C(=O)c2cccs2)c1	4545	34	-23	9.5	5	6	3
COc1ccc(NC(=O)c2cc3ccccc3oc2=NNS(=O)(=O)c2ccc(C)cc2)cc1	x	0	x	0.9	-1	5	x
COc1ccc(OC)c(NC(=O)COC(=O)/C=C/c2ccc(Cl)cc2)c1	9079	x	-17	x	x	x	-7
CCOC(=O)c1c(S(=O)(=O)NCC(=O)Nc2ccccc2)c(C)n(C)c1C	4147	-5	-36	-3.8	-8	1	0
COc1ccccc1CNC(=O)CCCn1nc(C)c2c(C)n(-c3ccc(C)cc3)nc2c1=O	x	4	-1	0.0	-1	0	-14
CC(CNC(=O)CN1C(=O)COc2ccc(S(=O)(=O)N3CCCCC3)cc21)c1ccccc1 (stereo unspecified)	3935	-2	4	0.1	6	6	-1
CCN1CCN(C(=O)c2ccc(Cl)c(S(=O)(=O)N3CCCCC3)c2)CC1	6822	-4	-15	2.2	4	-3	1
COc1ccc(CNC(=O)CC2C[C@H](C(=O)N3CCCCC3)[C@@]3(C)c4[nH]c5ccccc5c4CCN3C2=O)cc1OC (stereo partly specified)	2982	6	-4	-0.2	-4	-2	x
O=C(CN1C(=O)C(=O)N(Cc2ccco2)C1=O)c1c[nH]c2ccccc12	5689	1	-2	-2.1	-1	-4	-8
Cc1occc1-c1nnc(SCC(=O)Nc2ccccc2N2CCCCC2)n1C	3539	8	-7	-2.4	x	x	8
CCN(CC)CCNC(=O)C1(O)c2cc(Br)ccc2NC(=O)N1c1ccccc1 (stereo unspecified)	3122	7	-20	1.5	5	3	-5
COc1ccccc1C(=O)NC(=O)COC(=O)Cc1ccc(F)cc1	2943	6	-43	2.9	0	2	x
COc1ccccc1Nc1nc(Cl)nc(Nc2ccccc2OC)n1	4401	-9	-17	4.6	6	0	-11
CC(C)CN(C(=O)c1cc(Cl)nc2ccccc12)c1c(N)n(Cc2ccccc2)c(=O)[nH]c1=O	5580	-3	2	-1.9	-1	9	3
Clc1ccc(-c2nnc(Sc3nc4ccccc4o3)c3ccccc23)cc1	4214	12	-21	-1.4	8	11	4
CN(C)CCCNc1ncnc2oc(-c3ccccc3)c(-c3ccccc3)c12	3982	-9	-8	-3.9	20	7	11
COc1ccc(CCC(=O)N2CCCC(Nc3ccc(OC)cc3)C2)cc1 (stereo unspecified)	5335	3	3	2.1	-2	2	2
C=CCNC(=S)N/N=C(\C)c1cccc(OC)c1	2006	x	-24	x	x	x	13
CCC(=O)c1ccc(OC(=O)c2cccs2)cc1	3180	18	-18	12	-101	-31	5
CC(=O)Nc1cc(C(=O)CSc2nnc(C3CC3)n2C2CC2)ccc1O	u	5	5	7.4	7	3	x
CCN(CC)CCOc1ccc2nc(N(C)C)sc2c1	3582	10	-9	11	x	x	6
O=C(O)CCC(=NNC(=O)c1cccs1)c1ccccc1	x	6	x	2.1	-3	-1	x
Cc1cc(C)c(S(=O)(=O)Nc2nnc(CC(C)C)s2)c(C)c1	3687	-8	-12	9.5	-15	2	-5
CCOC(=O)N1CCN(S(=O)(=O)c2ccc(OC)cc2)CC1	3943	10	-21	3.6	20	6	0
CN(C)/C=C/C(=O)c1ccc2noc(-c3cccc(F)c3)c2c1	3510	-10	0	4.8	-7	1	-7
COc1ccccc1NS(=O)(=O)c1ccc(C(=O)NCCCN2CCCC2=O)cc1	9000	2	-8	2.0	1	3	x
COc1ccc(N(CC(=O)NN=Cc2ccco2)S(=O)(=O)c2ccccc2)cc1	x	-2	x	3.4	4	-6	x
CN(C)CCCN(C(=O)COc1ccc(Cl)cc1)c1nc2cc3c(cc2s1)OCO3	x	22	-8	-3.5	-1	-5	-2
COC(=O)C1CCCCN1C(=O)c1cc(COc2cccc3cccnc23)on1 (stereo unspecified)	3811	6	-5	-0.3	6	4	-3
O=C(c1ccc(C(F)(F)F)cc1)C1CCCN(C(=O)CCc2ccncc2)C1 (stereo unspecified)	5875	3	-11	-0.6	2	4	5
O=C(NC1CCCc2ccccc21)C1CCCN(S(=O)(=O)c2cnc[nH]2)C1 (stereo unspecified)	4039	-2	-8	-0.3	x	x	0
CSc1ccc(/C=c2\s/c(=C\C(=O)C(C)(C)C)n(CC(=O)NCCC3=CCCCC3)c2=O)cc1	2691	x	-3	x	x	x	0
CCOC(=O)c1ccccc1NS(=O)(=O)c1ccc(OCC)cc1	11519	3	-43	8.3	14	4	6
C=CCn1c(O)c(N=NC(=O)c2ccccc2NS(=O)(=O)c2cccs2)c2ccccc21	1899	-5	-13	5.6	-1	1	2
O=C(CSc1nnc2c(Cl)cc(Cl)cn12)N1CCN(c2ccc(F)cc2)CC1	2054	6	-26	4.6	18	11	-13
COc1cc(C(=O)NCC(=O)NC(C)c2ccc(-n3ccnc3)cc2)cc(OC)c1OC (stereo unspecified)	u	5	-14	3.9	13	4	-2
CN(CC(=O)NCCN1CCN(c2ccccc2)CC1)S(=O)(=O)c1ccc2c(c1)CCC(=O)N2	4903	14	-13	7.2	2	7	-1
CCN1C[C@]2(COC)CC[C@H](O)[C@@]34C5C[C@@H]6[C@@H](OC)C[C@@](O)(C5[C@H]6O)[C@](O)([C@@H](OC)C23)[C@@H]14 (stereo partly specified)	5860	-4	-6	3.2	x	x	-5

Gathered by group, the entries above with a furan ring, fused or not
SMILES	Autofluor counter	Sa ugtP lethal	PrP UTR inh	RN4220 kill	Mtb hypoxia rep	Mtb hypoxia rep growth	BJeLR viability
O=C(CN1C(=O)C(=O)N(Cc2ccco2)C1=O)c1c[nH]c2ccccc12	5689	1	-2	-2.1	-1	-4	-8
Cc1occc1-c1nnc(SCC(=O)Nc2ccccc2N2CCCCC2)n1C	3539	8	-7	-2.4	x	x	8
CN(C)CCCNc1ncnc2oc(-c3ccccc3)c(-c3ccccc3)c12	3982	-9	-8	-3.9	20	7	11
COc1ccc(N(CC(=O)NN=Cc2ccco2)S(=O)(=O)c2ccccc2)cc1	x	-2	x	3.4	4	-6	x

New compounds follow:
SMILES	Autofluor counter	Sa ugtP lethal	PrP UTR inh	RN4220 kill	Mtb hypoxia rep	Mtb hypoxia rep growth	BJeLR viability
O=C(CC1CCCCC1)N=C1SC2CS(=O)(=O)CC2N1c1ccccc1 (stereo unspecified)	5287	4	-6	0.2	7	3	8
Cc1cccc(OC(C)C(=O)Nc2ccc(N3CCCCC3)cc2)c1 (stereo unspecified)	4684	3	-17	9.6	9	13	6
N#Cc1ccc(NC(=O)COC(=O)CNC(=O)C2CCCCC2)cc1	3112	1	-44	-0.3	x	x	-1
COc1ccc(N(C(=O)c2cc3ccccc3oc2=O)C2C=CS(=O)(=O)C2)cc1 (stereo unspecified)	3336	3	-35	1.4	2	9	-9
C=C(C)COc1ccc(-c2nc(N)nc(C)c2Oc2ccccc2OC)c(O)c1	2422	-2	-16	1.6	x	x	-4
O=c1[nH]cnc2c1sc1nc(C(F)F)cc(-c3ccccc3)c12	2817	8	-21	4.9	-9	-6	x
CCOC(=O)c1ccc(CN2C(=O)c3ccccc3S2(=O)=O)cc1	3911	5	14	3.7	7	13	6
O=c1cc(N2CCCCCC2)[nH]c(=O)n1-c1ccc(Cl)cc1	4719	-3	-28	3.6	3	-2	1
COc1ccc(OC)c(C2=NOC(C(=O)Nc3ccc4c(c3)OCCO4)C2)c1 (stereo unspecified)	3890	5	-31	-3.5	6	-2	4
CS(=O)(=O)n1nc(-c2ccco2)nc1N	2689	4	-3	8.2	13	4	1
S=c1[nH]cc(-c2ccccc2)[nH]1	4064	-5	-39	5.3	-3	-9	5
CN(C)/C=C1/Nc2ccccc2C1=O	3579	8	-39	2.7	x	x	11
CCOC(=O)c1cc(C(=O)c2cccs2)n2ccc(C(C)=O)cc12	3359	-14	-2	17	13	4	-10
Cc1c(-c2csc(N)n2)c2ccccc2n1C	3339	-7	-1	6.0	8	5	-1
CSc1ccc(C(C(C(=O)c2cccs2)N2CCOCC2)N2CCOCC2)cc1 (stereo unspecified)	4387	-6	-24	-2.3	x	x	4
O=C(Cn1nc(-c2ccc(Cl)cc2)ccc1=O)NCCN1CCOCC1	6149	0	-3	-1.3	-3	9	-2
O=C(NCc1ccco1)C1CC(=O)N(CCc2ccccc2)C1 (stereo unspecified)	3474	-7	-26	-16	4	1	-6
CC(C)N(C)C(=O)C(=O)c1cccn1-c1cccc(Cl)c1C#N	2048	7	-16	5.3	15	9	2
C=CCN1C(=S)N[C@@H]2CS(=O)(=O)C[C@@H]21	5764	3	x	4.0	-3	-3	-9
CCCCCNC(=O)N[C@H](C(=O)O)C(C)C	2254	6	-22	0.8	9	9	-1
O=C(NC1CCCC1)C(c1ccco1)N(C(=O)c1ccco1)c1ccccc1 (stereo unspecified)	4671	-2	-10	1.5	-18	-1	3
Cc1nn(Cc2c(Cl)cccc2Cl)c(Cl)c1/C=C/C(=O)OCC(=O)NCC(F)(F)F	2765	-7	-4	-5.1	0	7	-8
CCOc1ccc2nc(NS(=O)(=O)c3ccc4c(c3)n(C)c(=O)n4C)sc2c1	4606	13	-11	-0.2	x	x	8
